Source: PubChem (several laboratories)
LANA-H2A inh: blocks KSHV LANA binding to histone H2A/H2B | inhibition, % (concentration not given with the values) | hit rate 0.6% among 320,000 | Q9QR71 | cell-free LANA-H2A/H2B peptide, fluorescence polarization; in the data active = inhibition mostly above about 10%, no sharp cut-off; inactive = mostly below about 6.7%;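 note: stock transfer was 7.5 nL into about 10 µL; 0% = median of vehicle wells and 100% = median of positive control wells; one replicate is shown; the record names a cut of 25% in any replicate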
HNF4A DNA FP: change in binding of human HNF4 alpha to DNA; HNF4a-FITC DNA binding, fluorescence polarization, 1 h; activity change, % at 10 µM; hit rate 0.3% among 360,000; AID 1224865; P41235; in the data active = activity change above about 30%, passing the limit was not always enough;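 note: controls were the assay level and a saturating level of protein; the project sought stronger binding though the title names inhibitors; some compounds called inactive have numbers as strong as hits; positive values seem to mean higher polarization but the record does not say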
Target sequence (P41235 whole entry, looked up): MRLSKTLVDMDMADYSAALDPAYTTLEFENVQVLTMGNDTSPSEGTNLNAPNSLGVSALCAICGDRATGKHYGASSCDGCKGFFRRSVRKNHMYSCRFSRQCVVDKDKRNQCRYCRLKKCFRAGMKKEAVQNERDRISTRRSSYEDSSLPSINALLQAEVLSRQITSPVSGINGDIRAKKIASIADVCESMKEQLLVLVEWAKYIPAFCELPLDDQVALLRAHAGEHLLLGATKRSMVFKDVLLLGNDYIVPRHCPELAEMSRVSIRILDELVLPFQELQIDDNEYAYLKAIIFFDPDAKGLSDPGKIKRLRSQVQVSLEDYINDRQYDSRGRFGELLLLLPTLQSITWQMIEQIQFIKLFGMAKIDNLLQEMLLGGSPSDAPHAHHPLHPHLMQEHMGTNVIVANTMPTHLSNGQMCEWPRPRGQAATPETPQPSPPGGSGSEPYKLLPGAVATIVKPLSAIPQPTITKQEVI
B2AR ag: activates human beta-2 adrenergic receptor causing internalization. P07550. Am2.2-beta2AR cells, FAP receptor internalization, flow cytometry; reference of the scale not given here. response, % (no concentration beside the values). hit rate 0.43% among 340,000. AID 504454;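 active = response above a set limit, near 3 SD of response in nonfluorescent compounds, cut at about 42% in these data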;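 note: stock transfer was 100 nL into about 11 µL; a reference agonist was the positive control; negative values mostly stem from fluorescent compounds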
UCH37 inh: blocks the human deubiquitinase UCH37; purified proteasome/UCH37, Ub-AMC cleavage fluorescence; inhibition, % (test concentration not listed); hit rate 0.33% among 330,000; AID 588478;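 active = mean of two replicates above 20%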;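 note: 0% = compound-free wells with enzyme and 100% = wells lacking proteasome; stock transfer was 100 nL into about 20 µL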
Target sequence (Q9Y5K5 whole entry, looked up): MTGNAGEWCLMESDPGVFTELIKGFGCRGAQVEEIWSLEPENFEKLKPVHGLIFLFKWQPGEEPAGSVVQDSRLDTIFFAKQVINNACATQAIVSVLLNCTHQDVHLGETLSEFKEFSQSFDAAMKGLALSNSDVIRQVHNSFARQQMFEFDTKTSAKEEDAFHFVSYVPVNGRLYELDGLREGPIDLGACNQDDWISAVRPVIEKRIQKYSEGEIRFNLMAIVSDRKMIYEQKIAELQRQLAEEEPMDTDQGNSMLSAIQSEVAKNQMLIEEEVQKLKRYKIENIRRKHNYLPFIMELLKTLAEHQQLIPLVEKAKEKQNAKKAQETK
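Reagent: Ub-AMC substrate; assay system: Proteasome-associated human UCH37 deubiquitinase; controls: no-proteasome and no-compound wells; read-out: % inhibition of Ub-AMC cleavage fluorescence; timing: 30 min preincubation with enzyme, 25 min cleavage at room temperature; signal: AMC fluorescence from Ub-AMC cleavage, excitation 355 nm, emission 460 nm; buffer or medium: Tris-HCl pH 7.4 plus ovalbumin, ATP-MgCl2, DTT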
E coli growth: E. coli growth inhibition | hit rate 0.21% among 330,000 | Escherichia coli growth, OD600, 23 h; hits give low values | OD600 absorbance (no concentration beside the values) | AID 1053175;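 active = OD600 absorbance below the run mean of sample wells minus 3.6 SD, in any replicate, cut at about 0.56 in these data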;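 note: stock transfer was 300 nL into about 60 µL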
Bfl-1 A1 inh: inhibitors of the anti-apoptotic protein A1, read as caspase activation; MEF A1-2A-BIM cells, Caspase-Glo 3/7 luminescence, 3 h; percent of clofoctol response, vehicle zero; caspase activation, % (no concentration beside the values); hit rate 0.066% among 330,000; AID 2462;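 active = over half of replicate activation scores above 10%, or exactly half above 10 with the replicate mean above 10; inconclusive = replicate mean below 10 yet half the replicates above 10; inactive = over half of replicates below 10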;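 note: wells of about 30 µL received 50 nL stock; many hits fall short of the cut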
Vif A3G: HIV-1 Vif–A3G interaction blockers – biochemical, TR-FRET, GST-Vif 1-94, biotin-A3G peptide, dose response retest, primary screen (AID 1117319) | inhibition, %, or IC50 in µM where a hit was titrated | hit rate 0.57% among 260,000 | TR-FRET GST-Vif / biotin-A3G peptide binding; higher % means a stronger effect; test concentration not given here; strong numbers were not always called active;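 active = above the screen mean plus three standard deviations and confirmed in dose response; inconclusive = results disagree or hit not tested in dose response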;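 note: Vif residues 1-94 fused to GST binding biotinylated APOBEC3G peptide 110-148; 0% = full assay without inhibitor and 100% = GST in place of GST-Vif; retest series ran down from 100 µM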
* marks the source's active call; other numbers are inactive results; ? = inconclusive; . = no result given.

SMILES	Vif A3G	HNF4A DNA FP	Bfl-1 A1 inh	E coli growth	UCH37 inh	B2AR ag	LANA-H2A inh
O=C(Cc1ccccc1[N+](=O)[O-])NNC(=O)Nc1ccc2c(c1)OCO2	-4%	-0.2	-1.0	0.69	3.9	6	-0.7
CCOc1ccc(CCNC(=O)COC(=O)c2cccc(S(=O)(=O)N3CCCC3)c2)cc1OCC	0%	5.1	0.1	0.7	1.9	6	-2.3
COc1ccccc1C(=O)OCn1nnc2ccccc2c1=O	.	-1.6	-0.2	0.73	7.1	-2	4.2
O=C(Nc1ccc(Br)cc1)c1cccc2c1C(=O)N(C1CCCCC1)C2	-5%	0.6	-0.5	0.66	-1.1	1	-5.0
COC(=O)c1ccc(NC(=O)CSc2nnc(Cc3cccn3C)n2-c2ccc(F)cc2)cc1	6%	-0.4	0.5	0.71	3.1	-8	-4.9
Cc1cc(NC(=O)C2CCCO2)ccc1Br (stereo not given)	30%	-2.2	0.5	0.66	-1.6	-1	-1.1
O=C(c1cccs1)N1CCN(C23CC4CC(CC(C4)C2)C3)CC1	.	1.9	1.1	0.7	4.2	-2	5.0
CC(Nc1nc(-c2ccccc2O)nc2ccccc12)c1ccccc1 (stereo not given)	4%	-3.2	0.8	0.69	2.8	1	-0.8
N#Cc1ccc(-c2csc(NC(=O)/C=C/c3cccs3)n2)cc1	5%	-0.6	-0.4	0.68	-15	4	-2.8
CC(=O)c1nccs1	.	2.0	1.1	0.68	-0.2	-4	0.2
C=CCNC(=O)CN(CCc1ccccc1)S(=O)(=O)c1ccccc1	3%	0.3	1.1	0.66	1.8	-4	-0.8
CN(C)c1ccc2cc(S(=O)(=O)O)cc(O)c2c1	10µM*	-18	.	0.73	-257	-4	.
O=c1[nH]c(-c2ccccc2)nn1-c1ccc(Br)cc1Br	.	4.5	0.3	0.65	1.4	-8	-1.4
Cc1ccc(NC(=O)CN2CCCC2)cc1	.	-2.0	0.8	0.64	0.1	1	-4.4
COc1cccc(NC(=O)CN(C)C(=O)c2cc(-c3cccc(Br)c3)nc3ccccc23)c1	5%	-2.3	-0.7	0.76	2.4	10	1.5

Following part
SMILES	Vif A3G	HNF4A DNA FP	Bfl-1 A1 inh	E coli growth	UCH37 inh	B2AR ag	LANA-H2A inh
Cc1ccc(CN2CC(C(=O)N3CCN(S(=O)(=O)c4cc(C)ccc4C)CC3)CC2=O)cc1 (stereo not given)	-2%	0.9	-0.2	0.65	0.1	0	-0.2
COc1ccc(C2C(C#N)=C(N)Nc3onc(C(C)(C)C)c32)c(OC)c1 (stereo not given)	.	-0.3	0.7	0.73	4.7	-6	2.6
COc1ccc(NC(=O)CN2C(=O)NC(C)(c3ccccc3)C2=O)c(OC)c1 (stereo not given)	.	2.8	-0.4	0.67	2.9	1	1.6
COc1ccccc1NC(=O)CCSc1nnc(-c2ccncc2)o1	1%	-0.8	0.1	0.69	1.9	-1	1.2
COc1ccc(CCN(C)S(=O)(=O)c2cn(C)c(=O)n(C)c2=O)cc1OC	14%	-2.0	.	0.68	4.1	-6	.
CC(/C=C/C1[C@H](C)C[C@H](O[C@@H]2O[C@H](CO)[C@@H](O)[C@H](O)[C@H]2O)CC1(C)C)O[C@H]1O[C@H](CO)[C@@H](O)[C@H](O)[C@H]1O (stereo not given in full)	.	-2.3	0.7	0.7	0.1	3	1.9
CCC(CC)NC(=O)CO/N=C/c1ccc(Cl)cc1Cl	-8%	1.2	-0.2	.	.	-8	3.7
O=c1cc(CSc2ccccc2)[nH]c(=S)[nH]1	-3%	2.4	1.3	0.67	1.8	4	-0.5
O=C(O)c1ccc(CSc2nnc(-c3ccc(Cl)cc3)o2)cc1	.	1.1	-1.4	0.65	-0.6	6	1.3
Cc1ccc(C2CC2C(=O)NN)cc1 (stereo not given)	13%	-1.5	0.4	0.73	5.7	5	3.8
CCCc1cc(C(N)=O)c(NC(=O)C2CCCO2)s1 (stereo not given)	2%	0.7	-0.1	0.66	0.2	5	2.3
c1ccc(-c2ccc(C3=Nn4c(Cn5nnc6ccccc65)nnc4SC3)cc2)cc1	-13%	-4.7	0.3	0.8	-1.2	-4	4.3
CC1=CCC2(CO)COC(c3ccccc3O)C1C2 (stereo not given)	-2%	-2.6	0.1	0.68	2.7	2	2.1
COC(=O)CSc1nnc(CNC(=O)c2ccccc2OC)n1-c1ccc(OC)cc1	69%	-2.6	-0.4	0.7	0.5	-5	-1.2
OCCCCCNc1ncnc2ccccc12	25%	-2.0	-0.3	0.76	-1.2	-9	-3.3

The results go on:
SMILES	Vif A3G	HNF4A DNA FP	Bfl-1 A1 inh	E coli growth	UCH37 inh	B2AR ag	LANA-H2A inh
COc1ccc(C(=O)N[C@H](C(=O)OCn2nnc3ccccc3c2=O)C(C)C)cc1	3%	-7.8	.	0.7	1.0	9	.
COC(=O)C(Cc1ccc(O)cc1)NC(=O)C1CCN(S(=O)(=O)c2ccc(C)cc2)CC1 (stereo not given)	.	-3.8	1.0	0.7	2.4	13	9.7
COc1cc(C(CCN2CCCC(C)C2)c2c(OC)cc(OC)c3c(-c4ccccc4)cc(=O)oc23)cc(OC)c1OC (stereo not given)	.	-0.1	-0.5	0.69	0.6	8	4.7
O=[N+]([O-])c1ccc(Oc2cccnc2)nc1	-7%	-1.5	-1.4	0.62	3.3	-6	-3.7
CCOC(=O)CC(Nc1nc(N2CCOCC2)nc(N2CCOCC2)n1)c1ccccc1Cl (stereo not given)	?	-3.1	-0.6	0.72	1.9	3	1.2
COc1ccc(NC(=O)NS(=O)(=O)c2ccc(C)cc2)c(OC)c1	14%	7.3	1.0	0.69	0.4	-5	-1.0
Cc1ccc(COC(=O)c2cc(S(=O)(=O)N3CCCCC3)ccc2N2CCOCC2)cc1	-7%	-1.3	0.1	0.71	-1.3	6	4.1
CCNc1nc(N)nc(Oc2ccc(OCCOc3ccccc3)nn2)n1	13%	-0.4	-0.2	0.67	1.7	2	-0.2
Cc1ccc(N2CC(C(=O)Nc3nnc(SCC(N)=O)s3)CC2=O)cc1C (stereo not given)	.	1.7	-1.4	0.65	5.0	-2	1.2
CCN(CC)S(=O)(=O)c1ccc(Cl)c(NC(=O)c2cc(Cl)cc(Cl)c2)c1	33%	2.9	0.8	0.73	1.8	-7	4.3
CC(=O)OCC(OC(C)=O)C(OC(C)=O)C(OC(C)=O)C(=O)Nc1ccc(C)cc1C (stereo not given)	22%	0.4	0.3	0.72	4.9	2	1.1
O=C(Nc1nnc(-c2ccccn2)o1)c1cccc(Br)c1	.	-0.2	-3.7	0.6	7.8	1	-3.1
Cc1ccc2c(cnn2C(=O)CCCC(=O)NCc2ccc(F)cc2)c1	.	12	.	0.7	0.9	-10	-0.3
O=C(COC(=O)c1ccc(Cl)nc1)NNC(=O)c1ccc(Cl)cc1	-5%	0.5	-0.1	0.67	1.5	-3	0.8
O=C(CN(C(=O)c1csnn1)c1cccc(C(F)(F)F)c1)NCc1ccc(F)cc1	.	-0.1	0.8	0.66	7.6	-1	-1.1

Looked up above.
O=C(CN(C(=O)c1csnn1)c1cccc(C(F)(F)F)c1)NCc1ccc(F)cc1 in HNF4A DNA FP is entered as -0.1
Cc1ccc(COC(=O)c2cc(S(=O)(=O)N3CCCCC3)ccc2N2CCOCC2)cc1 in E coli growth is entered as 0.71

(continued)
SMILES	Vif A3G	HNF4A DNA FP	Bfl-1 A1 inh	E coli growth	UCH37 inh	B2AR ag	LANA-H2A inh
Cc1cc(OCC(=O)NC(Cc2ccc(Cl)cc2)C(=O)O)c2c(C)cc(=O)oc2c1 (stereo not given)	.	3.5	-0.3	0.71	-80	-19	2.4
O=C1CC(c2ccccc2)CC(=O)N1c1ccccc1	-5%	-3.1	0.8	0.69	1.2	-2	-3.0
CCCC(C(=O)Nc1ccc(S(=O)(=O)N2CCOCC2)cc1)c1ccccc1 (stereo not given)	13%	-1.8	1.0	0.68	3.9	1	3.4
COc1ccc2oc(C(=O)OCC(=O)NCCc3ccc(S(N)(=O)=O)cc3)c(C)c2c1	1%	1.6	1.1	0.68	-36	5	2.7
CCOC(=O)c1cc(C(=O)c2cc(Br)ccc2O)coc1=N	.	-2.0	0.8	0.64	-3.9	-4	1.0
NC(=O)C(c1ccc(F)cc1)c1ccc(C(=O)c2ccccc2)cc1 (stereo not given)	-8%	0.2	0.6	0.62	-0.6	-5	-0.5
CCOc1ccc(NC(=O)C(c2ccccn2)N(C(=O)CCl)c2ccc(OC)cc2)cc1 (stereo not given)	?	0.5	-0.4	0.68	4.3	-10	-1.2
COc1ccc(-n2nc(C(=O)NCC(=O)N(C)Cc3ccccc3)c3ccccc3c2=O)cc1	.	1.4	-1.6	0.7	-5.6	2	-3.1
O=C(Nc1scc(-c2ccccc2)c1C(=O)O)c1ccco1	-1%	-1.4	-0.7	0.74	9.4	5	3.2
FC(F)(F)c1cccc(NC(=S)NC2CCCC2)c1	-2%	-1.2	-0.1	0.62	1.6	12	1.7
COc1cc(/C=N/NC(=O)/C(=C\c2ccc3c(c2)OCO3)NC(=O)c2ccccc2)ccc1O	.	-4.8	0.0	.	.	9	-1.8
COc1ccc(CNC(=O)c2ccc(S(=O)(=O)N3CCOCC3)cc2)cc1	8%	-2.8	.	0.7	2.1	3	.
CC(=O)Nc1cc(-c2nn(CC(=O)N3CCCCC3)c(=O)c3ccccc23)ccc1N1CCOCC1	-3%	2.1	0.6	0.69	1.7	-4	-4.5
CN(c1ccccc1C(=O)Nc1cccc([N+](=O)[O-])c1)S(=O)(=O)c1ccccc1	.	5.8	0.1	0.67	4.2	-13	3.9
O=C(Cc1ccccc1)NC1c2ccccc2-c2ccccc21	.	-3.3	0.9	0.7	0.2	-6	0.6

More structures follow.
SMILES	Vif A3G	HNF4A DNA FP	Bfl-1 A1 inh	E coli growth	UCH37 inh	B2AR ag	LANA-H2A inh
CCN(CC(=O)Nc1ccc2c(c1)OCCO2)C(=O)/C=C/c1ccccc1	.	2.4	-0.4	0.65	5.9	-4	-2.4
CC(C)(C)c1cc(C(=O)NCC(=O)OCC(=O)c2cccc([N+](=O)[O-])c2)cc(C(C)(C)C)c1	.	-3.6	1.4	0.7	0.6	6	-3.5
CCc1cccc(C)c1NC(=S)N(CCN(C)C)C(C)c1ccco1 (stereo not given)	19%	3.5	1.0	0.65	2.8	1	1.3
CC(C)(C)C(C(=O)Oc1ccccc1)c1ccccc1 (stereo not given)	.	0.3	0.7	0.69	24*	4	-3.5
NC(=O)COc1ccccc1	20%	5.5	-0.1	.	.	1	10
O=C(NCCOc1ccc(Cl)cc1)c1ccco1	-1%	-2.4	0.2	0.65	2.1	-5	-0.9
C=CCOCCN1C(=O)C2C3C=CC(C2C1=O)C1C2C(=O)N(CCOCC=C)C(=O)C2C31 (stereo not given)	?	-6.1	0.2	0.71	4.4	3	0.6
Cc1ccc2c(c1)nnn2C1CCN(C(=O)C2CCCCC2)CC1	-4%	-0.7	0.0	0.67	3.9	-4	4.1
O=C(O)C(Cc1ccccc1)n1cccc1 (stereo not given)	1%	-2.0	-0.1	0.75	-0.1	-11	-3.0
CCN(CC(=O)Nc1cc(Cl)ccc1C)C(=O)CC1CCCC1	.	2.0	-1.4	0.69	-0.7	0	-1.4
COc1ccc(OC)c(/C=N/NC(=O)C(=O)N2CCCCCC2)c1	.	-1.4	1.1	.	.	-4	5.4
COc1ccc(OC)c(C2=NS(=O)(=O)N(C)C(C(=O)Nc3cccc(C(C)=O)c3)=C2)c1	.	-1.8	0.8	0.68	3.5	5	0.9
Cc1ccccc1NC(=S)NCCc1c[nH]c2ccccc12	.	0.7	0.9	0.7	4.3	-10	-1.3
